WNV NS2B-NS3 inh: blocks West Nile virus NS2B-NS3 protease activity. 65,000 compounds, 0.18% hits. P06935. WNV NS2B-NS3 protease, fluorogenic substrate Ex360/Em465; stronger effect = lower value. z-score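 (tested at a level between 10 and 100 µM)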. AID 577;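 active = z-score at -3 or under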;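 also: score is relative to mean and spread of the compound wells of a plate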
Target sequence (P06935 1371-1501 limits assumed): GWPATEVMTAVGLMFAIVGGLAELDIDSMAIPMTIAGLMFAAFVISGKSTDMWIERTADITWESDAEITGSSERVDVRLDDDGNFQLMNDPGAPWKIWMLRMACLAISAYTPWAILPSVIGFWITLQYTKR
Target sequence (P06935 1502-1679 limits assumed): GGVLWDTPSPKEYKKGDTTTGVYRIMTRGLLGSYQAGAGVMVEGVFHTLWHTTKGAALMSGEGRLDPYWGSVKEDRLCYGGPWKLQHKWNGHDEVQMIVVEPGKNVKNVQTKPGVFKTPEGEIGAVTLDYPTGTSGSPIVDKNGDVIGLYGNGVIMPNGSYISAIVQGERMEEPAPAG
MT1-MMP reporter: MT1-MMP gene expression reporter suppression – cell-based, luciferase reporter, luminescence (AID 618); 87,000 compounds, 0.62% hits; MT1-MMP promoter luciferase reporter cells, luminescence; calls from a first round at 10 µM; hits with a dose series show EC50 in µM;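 active = over half of the reporter light lost at 10 µM or EC50 under 50 µM; inactive = the rest and hits that failed the dose series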;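 also: actives suppress MT1-MMP promoter-driven transcription so potencies describe inhibitors; HT1080 fibrosarcoma cells; overnight exposure; toxic or luciferase-blocking compounds were not removed from the actives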
Hsc70 ATP site: small molecules displacing fluorescent ligand from Hsc70 – biochemical, fluorescence polarization, primary screen (AID 568); Hsc70 fluorescence polarization, probe displacement; higher % means a stronger effect; strong numbers were not always called active; displacement, % at 20 µM; hits with a dose series show IC50 in µM; 83,000 tested, under 10 active;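 active = displacement above 50% without optical interference and an IC50 on retest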;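 also: ATPase domain with a fluorescein-tagged ATP probe; 0% = vehicle and 100% = excess ADP; read after one hour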
Active calls of the source: *; i = inactive; x = no result given.

structure,MT1-MMP reporter,WNV NS2B-NS3 inh,Hsc70 ATP site
CCCn1c(SCC(=O)N2CCc3ccccc32)nnc1-c1ccco1,i,-0.46,2.0%
CCOC(=O)c1ccccc1NC(=O)CC1SC(=NC)N(C)C1=O (stereo not given),i,-0.58,-2.5%
CCOC(=O)c1sc(NC(=O)c2ccc(S(=O)(=O)N3CCOCC3)cc2)cc1C,i,-1.3,120%
CSc1nnc(-c2sc3cc(Cl)ccc3c2Cl)n1C,i,0.93,0.0%
CCOC(=O)CC12CN3CN(C1)CC(CC(=O)OCC)(C3)C2=O,i,-0.36,-5.1%
Cc1csc(SC(C)C(=O)Nc2ccc(S(=O)(=O)N3CCCC3)cc2)n1 (stereo not given),i,-0.36,-2.3%
COc1ccc(CC(=O)NC2CC(C)(C)NC(C)(C)C2)cc1,i,x,3.4%
CCn1c2c(c3ccc(OC)cc31)CCCC2=O,i,-0.77,-6.0%
CCCc1ccc(-c2cc(NC(=O)CSc3n[nH]c(N)n3)n(-c3ccccc3)n2)cc1,i,x,-2.6%
O=C(OCc1nc2ccccc2s1)c1cccc(S(=O)(=O)N2CCOCC2)c1,i,-0.91,-2.3%
CCCN1CCN(CCCNC(=O)Cn2nc(-c3ccc(Cl)cc3)ccc2=O)CC1,i,-0.64,0.0%
O=C(CSc1nc(O)cc(=O)[nH]1)C1CC1,i,-0.56,-2.9%
CN1CCc2c(sc3c2C(=O)NC(/C=C/c2ccco2)N3)C1 (stereo not given),i,1.6,5.2%
CN(c1ccc(Cl)cc1)c1cc(=O)n(C)c2ccccc12,i,1.5,1.5%
O=C(CSc1nc2ccccc2o1)NCc1ccc2c(c1)OCO2,i,0.92,1.9%
O=C(CSc1nnc(Cc2cccs2)n1-c1ccccc1)NC1CCCCC1,i,-0.54,7.4%
COCc1c(Br)c(C)[nH]c(=O)c1C#N,i,x,5.3%
CCCOc1ccc(C(=O)NCCC(=O)NCCCC(=O)OCC)cc1,i,-1.1,-1.6%
Cc1cc(C(=O)COC(=O)CCC(=O)c2ccc3c(c2)OCCO3)c(C)n1Cc1ccco1,i,0.2,-13%
Cc1ccc2oc(=O)c3cnn(CC(=O)NC4CCCCC4C)c3c2c1 (stereo not given),i,-0.11,-5.0%
CN1CCN(C(=O)/C(=C/c2ccccc2)c2ccccc2)CC1,i,x,-0.3%
c1csc(-c2noc(COc3ccc4c(c3)CCCC4)n2)c1,i,-1.1,-3.0%
Cc1ccc(CSc2nnc(-c3ccncc3)n2CC2CCCO2)cc1 (stereo not given),i,x,5.1%
CC(=O)c1cccc(NC(=O)c2cc(-c3ccc(C)cc3)on2)c1,i,0.07,-0.5%
COc1cc2c(cc1OC)C(=NCCC(=O)O)NC(C)(C)C2,i,1,0.8%
COc1cc2c(cc1OC)-c1nnc(-c3ccco3)n1C1(CCCC1)C2,i,x,-1.6%
Cc1ccc(S(=O)(=O)N2CC3CCC2C3)cc1 (stereo not given),i,-0.03,3.1%
COc1ccc(-n2c(O)cnc2Nc2nc(C)cc(C)n2)cc1OC,i,x,4.7%
O=C(NC(NC1CCS(=O)(=O)C1)C(=O)c1cccs1)c1ccccc1 (stereo not given),i,-0.57,-1.7%
CCOC(=O)/C(C#N)=C(\N)C(C)C(=O)Nc1ccccn1 (stereo not given),i,1.3,4.3%
CCOc1ccc(-n2c(=O)cc(N3CCN(c4ccc(F)cc4)CC3)[nH]c2=O)cc1,i,0.09,-4.0%
c1coc(CNc2c3c(nc4ncnn24)CCC3)c1,i,1.7,-0.4%
CCn1c2ccccc2c2nnc(SCCCn3c(=O)[nH]c4ccccc43)nc21,i,-0.64,-4.5%
O=C(CCc1n[nH]c(=O)[nH]c1=O)N1CCCCC1,i,-0.59,7.3%
COc1ccc(CNC(=O)c2cnc3scc(C)n3c2=O)cc1,i,-0.15,5.4%
CCOC(=O)c1c(C)n(CCNC(C)=O)c2ccc(O)cc12,i,x,0.9%
Cc1ccccc1NC(=O)NCCc1nc2ccccc2[nH]1,i,0.4,-0.1%
COc1ccc(NC2CC(=O)N(c3ccccc3)C2=O)cc1 (stereo not given),i,-0.95,2.4%
Cc1cc(=O)oc(C)c1C(=O)NCCCN1CCN(c2ccccc2F)CC1,i,-0.56,2.8%
Oc1ccccc1NCC(O)Cn1ccc2ccccc21 (stereo not given),i,-0.21,-12%
COc1ccccc1-c1c(C)nn2c(N3CCC4(CC3)OCCO4)cc(C)nc12,i,-0.05,-6.0%
Cn1c(C(=O)NCc2cccnc2)cc2sc(Cl)cc21,i,0.38,-3.6%
O=C(CCCNS(=O)(=O)c1cccs1)N1CCN(c2cccc(Cl)c2)CC1,i,-0.31,3.1%
NC(=O)Cn1c(=O)oc2ccccc21,i,-0.68,-2.6%
CCCC(=O)N(c1ccc2oc(=O)sc2c1)S(=O)(=O)c1cccs1,i,0.06,-7.3%

Record cards (already shown):
Cn1c(C(=O)NCc2cccnc2)cc2sc(Cl)cc21 across the screens: MT1-MMP reporter: i; WNV NS2B-NS3 inh: 0.38; Hsc70 ATP site: -3.6%
CCCC(=O)N(c1ccc2oc(=O)sc2c1)S(=O)(=O)c1cccs1 across the screens: MT1-MMP reporter: i; WNV NS2B-NS3 inh: 0.06; Hsc70 ATP site: -7.3%

Following part.
structure,MT1-MMP reporter,WNV NS2B-NS3 inh,Hsc70 ATP site
COC(=O)Nc1nn(Cc2ccccc2F)cc1Br,i,0.0031,3.7%
NC(=O)C1CCN(C(=O)CCc2nc3ccccc3c(=O)[nH]2)CC1,i,x,0.7%
NC(=O)c1oc2ccccc2c1NC(=O)CN1CCCCC1,i,-0.23,-1.1%
O=C(c1ccncc1)N(Cc1ccccc1)Cc1nc2ccccc2c(=O)[nH]1,i,-0.7,-1.7%
Cc1cccn2c(=O)c3cc(C(=O)N4COCC4(C)C)n(C)c3nc12,i,-0.1,11%
COC(=O)CC1SC(=O)NC1=Nc1ccccc1 (stereo not given),i,-1.1,3.9%
Cc1c(NC(=O)NCCN2C(=O)C3C4C=CC(C4)C3C2=O)c(=O)n(-c2ccccc2)n1C (stereo not given),i,-1.7,6.8%
O=C(OCN1C(=O)c2ccccc2C1=O)c1ccco1,i,-0.48,0.2%
O=C(CCNC(=O)c1ccc(Br)o1)NCc1ccccn1,i,0.29,2.2%
CSc1oc(-c2ccco2)nc1S(=O)(=O)c1ccccc1,i,1,4.8%
CC1(C)CC(=O)N(CC(=O)O)c2ccccc2S1(=O)=O,i,0.12,2.6%
COc1ccc(N/C=C\C(=O)c2ccc3c(c2)OCO3)cc1,i,x,-0.5%
CCOC(=O)c1cc(-c2ccc3c(c2)OCO3)nc2onc(C)c12,i,0.37,-1.8%
O=C(c1cc(-c2ccccc2)nc2ccccc12)N1CCOCC1,i,-0.85,-5.3%
O=C(Nc1ccccc1C(=O)NC1CCCC1)NC1CCCC1,i,-0.1,1.2%
COC(=O)c1ccccc1NC(=O)CCNC(=O)Cn1cnc2ccccc2c1=O,i,-0.05,-0.9%
CCc1ccc(CN/C=C/C(=O)c2ccc(Br)cc2)cc1,i,x,-0.8%
COC(=O)c1cc2c(C)nn(-c3ccccc3)c2s1,i,0.66,-2.8%
CCOc1cc(S(=O)(=O)Nc2cc(C)cc(C)c2)ccc1Cl,i,x,-0.4%
CCOC(=O)COc1ccc2nsnc2c1Cl,i,-0.43,-4.6%
COc1ccc(S(=O)(=O)Nc2ccc(O)c(Sc3ncn[nH]3)c2)cc1,i,x,6.0%
O=C(O)c1cccc(Cn2cccn2)c1,i,-0.61,4.5%
Cc1ccc(CN(c2ccc(C(=O)Nc3cccnc3)cc2)S(C)(=O)=O)cc1,i,x,-1.7%
Cc1cc(C)nc(SCC(=O)c2c(N)n(C)c(=O)n(C)c2=O)n1,i,x,-0.2%
Nc1nc2ccc(O)cc2s1,i,x,-1.2%
CC1=Nc2ccccc2/C1=C\c1nc(-c2ccc(C(F)(F)F)cc2)oc1O,i,x,15%
c1ccc(CNc2ncnc3c2cnn3Cc2ccccc2)cc1,i,x,-2.2%
O=C(O)C1C2C=CC(C2)C1C(=O)Nc1cccc(C(=O)N2CCCCC2)c1 (stereo not given),i,x,-0.3%
COc1ccccc1CNCc1ccc(OC)c(OC)c1OC,i,x,2.3%
CC(C)(C)NC(=O)CSc1nncn1NCc1ccccc1,i,0.19,-0.2%
Nc1cc(Cl)ccc1C(=O)OCC(=O)NC1CCS(=O)(=O)C1 (stereo not given),i,x,2.7%
CCN1CCn2c3c(c4cc(Cl)ccc42)CCCC31 (stereo not given),i,-1.8,3.0%
CCOc1ccc(NCC2CCOC(C)(C)C2)cc1 (stereo not given),i,x,-1.3%
CCOC(=O)N1CCN(c2nc(-c3ccc(Cl)cc3)cs2)CC1,i,0.96,-1.4%
Cc1cc(NC(=O)CSc2nc(-c3ccc(F)cc3)cs2)no1,i,0.91,5.3%
O=C(CN1C(=O)c2ccccc2C1=O)NCC1CCCO1 (stereo not given),i,1.7,-3.7%
CCn1c(CSc2ncccn2)nnc1SCC(=O)N1CCc2ccccc21,i,0.52,-6.0%
Cn1c(Cn2c(=O)sc3ccccc32)nnc1SCc1ccccc1,i,1,-0.5%
COc1cc(-c2nnc(Cn3cc(C(F)(F)F)ccc3=O)o2)cc(OC)c1OC,i,0.11,0.1%
O=C(O)C1C2C=CC3(CN(CC(O)COc4ccccc4)C(=O)C13)O2 (stereo not given),i,-0.31,-1.4%
CN(C(=O)c1cccnc1)c1nnc(-c2cccnc2)s1,i,-0.84,2.8%
Cn1c(SCC(=O)N2CCN(c3ccccc3)CC2)nnc1-c1cc2ccccc2o1,i,0.15,2.9%
O=C(Cc1ccc(-n2c(=O)[nH]c3ccccc3c2=O)cc1)N1CCN(c2ccccc2)CC1,i,0.18,-10%
O=C(Nc1ccc(N2CCOCC2)cc1)NC1CCCCC1,i,0.01,-0.1%
COCCn1nnnc1C(c1ccccc1)N1CCN(c2ccccc2)CC1 (stereo not given),i,x,-4.6%
Cc1c(CCOC(=O)CC23CC4CC(CC(C4)C2)C3)sc[n+]1CC(=O)c1ccc(Br)cc1,i,x,-5.1%
Cn1c(=O)n(C)c2cc(C(=O)Nc3ccc4c(c3)OCO4)ccc21,i,-1,2.8%
N=c1sccn1CC(=O)N1CCc2ccccc21,i,x,3.4%
Fc1ccc(N2CCN(C(c3cccs3)c3nnnn3CCc3ccccc3)CC2)cc1 (stereo not given),i,-0.84,1.7%
COc1cc(CC(=O)Nc2ncc(C)s2)cc(OC)c1OC,i,1.6,0.4%
Clc1ccc(OCc2nn3c(C4CCCCC4)nnc3s2)c(Cl)c1,i,-0.33,0.7%
O=C1CSC2=NCN(c3ccccc3)CN12,i,x,-6.6%
Cc1oc2ccc(O)cc2c1C(=O)c1ccc(Cl)cc1,i,x,3.4%
O=C(NCCCN1CCN(c2cccc(Cl)c2)CC1)C1(S(=O)(=O)c2ccc(Cl)cc2)CC1,i,x,5.4%
CC1(C)CC(NC(=O)C23CCC(C)(C(=O)C2)C3(C)C)CC(C)(C)N1 (stereo not given),i,-0.1,-5.6%
Cc1cccc(NC(=O)C2CCCN2S(=O)(=O)c2ccc(F)cc2)c1C (stereo not given),i,0.67,-0.7%
O=C(Nc1ccc(N2CCN(C(=O)c3ccco3)CC2)cc1)c1ccc2c(c1)OCO2,i,-0.83,1.8%
CCN(CCCNC(=O)c1cn(CC)c2ccc(S(=O)(=O)N(C)C)cc2c1=O)c1cccc(C)c1,i,-0.17,-0.2%
COc1ccc(S(=O)(=O)N2CCC(C(=O)NCc3ccccn3)CC2)cc1C,i,1,-9.2%
O=S(=O)(Nn1cnnc1)c1ccccc1Cl,i,0.33,6.9%

Part of the list above, with two lines to a compound.
Each structure is followed by: MT1-MMP reporter | WNV NS2B-NS3 inh | Hsc70 ATP site
O=C(CN1C(=O)c2ccccc2C1=O)NCC1CCCO1 (stereo not given)
 : i | 1.7 | -3.7%
CCCC(=O)N(c1ccc2oc(=O)sc2c1)S(=O)(=O)c1cccs1
 : i | 0.06 | -7.3%
CCn1c2c(c3ccc(OC)cc31)CCCC2=O
 : i | -0.77 | -6.0%
Nc1nc2ccc(O)cc2s1
 : i | x | -1.2%

Continued:
structure,MT1-MMP reporter,WNV NS2B-NS3 inh,Hsc70 ATP site
Cc1cc(C)nc(-n2nc(C)c(Oc3ccccc3O)c2C)n1,i,-1.1,2.8%
O=C(CCCSc1nc(-c2ccco2)cc(C(F)(F)F)n1)NCC1CCCO1 (stereo not given),i,x,-5.6%
CCN1C(=O)/C(=C2\C=Cc3ccccc3N2CC)OC1=S,i,0.14,-1.1%
COc1ccc(-n2nccc2-c2nn(-c3cccc(OC)c3)c(=O)n(C)c2=O)cc1,i,x,0.3%
CCN(CC)CCNC(=O)c1ccc(N2CCCCC2)c(NS(=O)(=O)c2ccc(C)cc2)c1,i,0.36,1.8%
CCNC1=C(Cl)C(=O)c2ccccc2C1=O,i,x,-2.7%
O=C(O)CCCC(=O)Nc1c(F)c(F)c(F)c(F)c1F,i,-0.02,5.5%

Screening results deposited in PubChem BioAssay by several laboratories.
